High-throughput results from PubChem.
RanGTP-Imp inh = disruptors of Ran-importin-beta complex formation – biochemical, FRET, CFP-Ran, YFP-importin-beta, homogeneous, primary screen. hit rate 1.1% among 300,000. AID 2216. inhibition, % (concentration not given with the values). cell-free CFP-Ran/YFP-importin-beta FRET ratio;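 active = most replicates above 15%; inconclusive = exactly half above 15%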;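 note: 0% = DMSO wells and 100% = Ran loaded with GDP instead of GTP; wells of about 40 µL received 100 nL stock; the first replicate is given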
Beta cell apopt = blocks beta cell apoptosis; INS-1E cytokine-induced death, ATP luminescence, 48 h; percent of positive-control rescue, neutral wells zero; protection from apoptosis, % (concentration not given with the values); hit rate 0.8% among 300,000;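 active = all replicates at 75% or more, or half of them and the mean; inconclusive = half reach 75% but not the mean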;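 note: 0% = cytokine-treated negative control wells and 100% = positive control rescue; higher means more ATP so stronger rescue from cytokine killing; wells of about 40 µL received 100 nL stock; the first replicate is given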
Beta2AR agonist = agonists of human beta-2 adrenergic receptor inducing internalization. P07550. Am2.2-beta2AR cells, FAP receptor internalization, flow cytometry; reference of the scale not given here. response, % (concentration not given with the values). hit rate 0.43% among 340,000. AID 504454;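 active = response above a set limit, near 3 SD of response in nonfluorescent compounds, cut at about 42% in these data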;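 note: stock transfer was 100 nL into about 11 µL; a reference agonist was the positive control; negative values mostly stem from fluorescent compounds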
Target sequence (P07550 whole entry, looked up): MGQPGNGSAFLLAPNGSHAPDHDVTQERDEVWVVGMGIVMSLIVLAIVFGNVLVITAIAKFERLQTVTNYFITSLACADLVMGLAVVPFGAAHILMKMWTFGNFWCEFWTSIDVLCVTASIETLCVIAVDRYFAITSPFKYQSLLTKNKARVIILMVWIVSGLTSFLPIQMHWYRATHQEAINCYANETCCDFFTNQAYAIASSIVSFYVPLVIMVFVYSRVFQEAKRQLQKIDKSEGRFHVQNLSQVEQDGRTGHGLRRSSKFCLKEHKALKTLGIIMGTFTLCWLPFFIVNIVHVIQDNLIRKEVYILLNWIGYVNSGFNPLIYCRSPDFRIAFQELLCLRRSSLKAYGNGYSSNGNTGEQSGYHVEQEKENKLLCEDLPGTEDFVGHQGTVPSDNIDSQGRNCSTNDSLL
T cruzi repl = T. cruzi replication inhibition. T. cruzi beta-gal in NIH3T3, luminescence, 90 h. inhibition, % (concentration not given with the values). hit rate 1.4% among 300,000. AID 1885;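 active = mean inhibition across valid replicates above about 55%, limit read from the data; inconclusive = mean below that limit but half or more replicates reach it; inactive = mean below it, under half of replicates reach it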;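 note: signal also drops with host cell toxicity which is not excluded here; 0% = plate median of DMSO wells and 100% = zero luminescence signal; higher percent means less beta-gal luminescence so fewer parasites; stock transfer was 50 nL into about 50 µL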
LANA-H2B inh = blocks KSHV LANA binding to histone H2A/H2B; Q9QR71; cell-free LANA-H2A/H2B peptide, fluorescence polarization; inhibition, % (no concentration beside the values); hit rate 0.6% among 320,000; AID 2629; in the data active = inhibition mostly above about 10%, no sharp cut-off; inactive = mostly below about 6.7%;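 note: stock transfer was 7.5 nL into about 10 µL; 0% = median of vehicle wells and 100% = median of positive control wells; one replicate is shown; the record names a cut of 25% in any replicate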
Calb FLC = C. albicans growth modulation with fluconazole; hit rate 0.57% among 300,000; growth inhibition, % (no concentration beside the values); C. albicans CaCi-2 (fluconazole-resistant clinical isolate) + fluconazole, Alamar Blue growth, 48 h;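 active = most replicates above 75%; inconclusive = exactly half above 75%; inactive = most below 75%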;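 note: all wells also contain fluconazole at 8 µg/ml as a sub-toxic cotreatment; 0% = median of DMSO wells and 100% = median of geldanamycin control wells; wells of about 8 µL received 7.5 nL stock; the first replicate is given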
UCH37 DUB inh = inhibitors of human deubiquitinating enzyme UCH37. Q9Y5K5. purified proteasome/UCH37, Ub-AMC cleavage fluorescence. inhibition, % (concentration not given with the values). hit rate 0.33% among 330,000;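 active = mean of two replicates above 20%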;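 note: 0% = compound-free wells with enzyme and 100% = wells lacking proteasome; stock transfer was 100 nL into about 20 µL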
Target sequence (Q9Y5K5 whole entry, looked up): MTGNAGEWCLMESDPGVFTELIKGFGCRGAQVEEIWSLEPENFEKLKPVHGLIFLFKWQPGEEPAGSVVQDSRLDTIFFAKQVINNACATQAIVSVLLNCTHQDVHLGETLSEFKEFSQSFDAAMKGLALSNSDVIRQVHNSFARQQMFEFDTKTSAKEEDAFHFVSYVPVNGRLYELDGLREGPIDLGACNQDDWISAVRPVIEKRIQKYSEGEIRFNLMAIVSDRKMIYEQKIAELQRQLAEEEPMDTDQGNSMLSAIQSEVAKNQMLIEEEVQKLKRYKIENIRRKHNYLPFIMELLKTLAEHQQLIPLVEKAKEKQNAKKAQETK
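system = Proteasome-associated human UCH37 deubiquitinase | amount = 0.15 nM proteasome as dispensed | medium = pH 7.4 Tris-HCl (50 mM) with ovalbumin, ATP-MgCl2, DTT | incubation = 30 min preincubation with enzyme, 25 min cleavage at room temperature | detection = AMC fluorescence 355/460 nm | read-out basis = percent inhibition | controls = no-proteasome and no-compound wells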
Bfl-1 A1 inh = inhibitors of the anti-apoptotic protein A1, read as caspase activation. MEF A1-2A-BIM cells, Caspase-Glo 3/7 luminescence, 3 h; percent of clofoctol response, vehicle zero. caspase activation, % (concentration not given with the values). hit rate 0.066% among 330,000. AID 2462;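 active = over half of replicate activation scores above 10%, or exactly half above 10 with the replicate mean above 10; inconclusive = replicate mean below 10 yet half the replicates above 10; inactive = over half of replicates below 10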;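 note: wells of about 30 µL received 50 nL stock; many hits fall short of the cut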
* = called active by the depositor; ? = inconclusive; . = no result given; & = joins results of further samples.

smiles,RanGTP-Imp inh,Beta cell apopt,Beta2AR agonist,T cruzi repl,LANA-H2B inh,Calb FLC,UCH37 DUB inh,Bfl-1 A1 inh
CCOc1ccc(CNC(=O)C2CCN(S(=O)(=O)c3ccc4c(c3)CCCC(=O)N4)CC2)cc1,-0.2,6,-4,7,-4.2,-17,-1.3,0.6
Cc1cc(NC(=O)CSc2nc3cc(C(=O)NCCCOC(C)C)ccc3c(=O)n2Cc2ccco2)no1,9.4,5,-4,1,1.2,6,-8.9,2.3
Cc1cc(C(=O)N2CCN(c3cc(Cl)ccc3C)CC2)on1,12,-7,-2,3,1.0,-5,1.8,0.2
Cc1c2cnn(CC(=O)N3CCOCC3)c(=O)c2c(C)n1Cc1ccccc1F,-1.6,-1,1,-2,0.8,4,1.8,0.2
COc1ccc(S(=O)(=O)Cc2ccc(C(=O)N3CCCC3)o2)cc1,?,2,-4,-6,5.1,-6,1.3,0.0
O=C(O)C(CO)(c1ccccc1)c1ccccc1,?,-7,-3,-1,6.7,-1,4.3,?
Nc1cc(N2CCOCC2)c(Cl)cc1[N+](=O)[O-],0.6,-5,2,-32,-5.1,2,6.2,-0.6
O=C(Nc1ccc(C(F)(F)F)cc1)c1cc(-c2cccnc2)nc2ccc(Br)cc12,-3.0,24,9,47,-1.0,3,0.4,-0.9
Cc1cc(C)c(C(=O)COC(=O)c2cccnc2Cl)c(C)c1,-4.7,-4,3,-9,0.0,11,3.8,-0.5
COc1ccc(N=C2C(=Nc3ccc(OC)cc3)N(c3ccc(N(C)C)cc3)C(=S)N2c2ccc(OC)cc2)cc1,-0.8,-4,12,39,-4.8,-11,10,-0.3
NC(=O)CSc1nnc(NC(=O)c2ccc(S(=O)(=O)N3CCOCC3)cc2)s1,-2.1,8,6,-10,-7.8,-2,10,-1.1
CC(C)c1ccc(S(=O)(=O)N2CCC(C(=O)N3CCC3)CC2)cc1,0.1,-1,0,-10,5.5,8,-2.7,0.8
COc1ccc(C(=O)COC(=O)CCC(=O)Nc2ccc(C(C)=O)cc2)cc1,1.8,-4,-2,-1,-3.2,-6,4.1,-0.1
Cc1nn(C(=O)c2cccc([N+](=O)[O-])c2)c(C)c1Br,2.5,-8,0,-10,-3.3,1,2.8,1.0
Cc1noc(C)c1NC(=O)Nc1cccc2c1O[C@H](CN(C)C(=O)NC1CCCCC1)[C@@H](C)CN([C@H](C)CO)C2=O,.,1,-3,.,5.0,.,3.7,0.4
Cc1onc(-c2ccccc2Cl)c1C(=O)N1CC(C)CC(C)C1 (configuration not stated),4.1,2,0,-23,6.9,18,3.7,1.0
CCSc1nc2c(c(=O)[nH]1)C(c1cccnc1)C(C(=O)OC(C)C)=C(C)N2 (configuration not stated),7.0,-2,10,2,-1.4,-4,-6.5,0.7
CCOc1ccc(CN(C)Cc2cc(=O)oc3cc(C)c(Cl)cc23)cc1,-0.8,-1,-22,25,2.4,0,4.9,-0.1
Cc1ccc(OCCCC(=O)Nc2ccc(N3CCOCC3)cc2)c(C)c1,-1.4,-2,-1,25,-8.3,-3,1.4,1.2
CN(CCc1cnn(C)c1)Cc1cn[nH]c1-c1ccc(-c2ccccc2)cc1,-1.2,-3,7,28,2.6,2,4.5,0.0
Cc1cccc(C)c1Nc1c(-c2ccc(N3CCOCC3)cc2)nc2ncccn12,-2.8,-2,-5,-4,-2.1,34,5.2,0.2
CCn1c(C(C)NC(=O)c2ccc(OC)c(OC)c2)nc2ccccc21 (configuration not stated),7.2,-2,-7,-2,1.4,0,3.5,-1.4
Cc1ccc(C)c(OCc2cc(C(=O)N3CC[C@H](O)C3)no2)c1,3.9,2,-2,-4,-1.5,-12,2.6,-0.9
CN1CCC(OC(=O)c2cccc(Cl)c2)CC1,-11,-10,-3,60*,2.2,-4,4.3,0.0
Cc1ccc(CCNC(=O)C2CCC(=O)N2C(C)C)cc1 (configuration not stated),-0.9,-1,10,-22,6.1,-2,1.8,-0.5
Cc1oc(-c2cccc(Cl)c2)[n+]([O-])c1C,6.0,-3,-2,-6,0.0,0,2.6,0.0
COc1ccccc1CN1CC(C(=O)NCc2cc(F)cc(C(F)(F)F)c2)CCC1=O (configuration not stated),-3.4,4,-1,0,-2.6,2,0.9,0.4
O=C(CN1C(=O)c2ccccc2C1=O)Nc1cccnc1,1.8,6,8,-4,3.7,-18,-6.5,0.6
COc1cc(CCC(=O)OCC(=O)NCC2CCCCC2)cc(OC)c1OC,-1.9,2,0,-21,11,-11,1.2,0.7
COc1ccc(NC(=O)c2cc3n(n2)C(C(F)(F)F)CC(c2ccc(OC)cc2)N3)cc1 (configuration not stated),?,3,8,9,0.0,2,-1.1,0.1
Cc1cccn2c(CNC3CCCc4ccccc43)c(C(=O)N3CCOCC3)nc12 (configuration not stated),-2.2,.,-1,6,.,-27,2.1,.
COc1ccc(S(=O)(=O)N2CCOC2CNC(=O)C(=O)NCCN2CCOCC2)cc1 (configuration not stated),3.5,-10,4,1,-2.6,-6,3.0,-0.3
COc1ccc(NC(=O)c2cccc(NC3=NC4CS(=O)(=O)CC4S3)c2)cc1Cl (configuration not stated),1.2,-7,1,-4,-1.6,1,3.9,0.6
COC(=O)c1c(NC(C)=O)sc(C)c1C,1.9,-3,4,1,2.4,-5,4.5,-0.1
Cc1nn(C)c(C)c1NC(=O)Nc1ccc(Cl)c(Cl)c1,-0.6,6,1,36,-0.2,12,1.1,0.1
CCOC(=O)C(CC)Sc1nc2c(cnn2-c2ccc(F)cc2)c(=O)[nH]1 (configuration not stated),-4.5,5,3,-2,4.5,17,5.6,-1.7
Cc1cc(C#N)c2ccccc2n1,2.7,1,4,-21,-3.3,-4,2.3,-0.5
CCC(=O)NC(=S)N1CCN(c2ccc([N+](=O)[O-])cc2Cl)CC1,3.6,10,0,10,0.8,-3,3.5,0.0
C/C(CC(=O)Nc1ccccn1)=N\NC(=O)c1ccc(C)cc1,-1.0,-5,-4,-12,2.9,17,.,0.0
Cc1n[nH]c(C)c1CCC(=O)N/N=C/c1cccs1,4.0,-4,2,-4,-1.6,-5,.,0.9
CCOC(=O)c1c(C)oc2cc(Br)c(O)c(Br)c12,6.9,-5,8,-5,3.0,34,0.4,0.2
Cc1cccc(NC(=S)NNC(=O)CCn2cc(C)cn2)c1,12,3,0,-30,-2.6,-10,3.6,0.7
CC(C)OC(=O)c1ccc(N)cc1,-0.2,.,-7,-4,2.4,-9,2.2,-1.0
CCOc1cc(N2CCOCC2)c(OCC)cc1NC(=O)CN1C(=O)C2CC=CCC2C1=O (configuration not stated),2.9,-7,0,-6,4.1,13,-0.1,1.3
COc1ccc2[nH]cc(C(=O)CN3CCC(C)CC3)c2c1,0.5,-13,3,-1,2.6,4,2.7,0.3

Random excerpt: three entries already listed
smiles,RanGTP-Imp inh,Beta cell apopt,Beta2AR agonist,T cruzi repl,LANA-H2B inh,Calb FLC,UCH37 DUB inh,Bfl-1 A1 inh
Cc1nn(C)c(C)c1NC(=O)Nc1ccc(Cl)c(Cl)c1,-0.6,6,1,36,-0.2,12,1.1,0.1
COC(=O)c1c(NC(C)=O)sc(C)c1C,1.9,-3,4,1,2.4,-5,4.5,-0.1
Cc1cccc(NC(=S)NNC(=O)CCn2cc(C)cn2)c1,12,3,0,-30,-2.6,-10,3.6,0.7

More entries:
smiles,RanGTP-Imp inh,Beta cell apopt,Beta2AR agonist,T cruzi repl,LANA-H2B inh,Calb FLC,UCH37 DUB inh,Bfl-1 A1 inh
Cc1ccc(N(CC(=O)NC2CCCCC2C)S(=O)(=O)c2c(C)noc2C)cc1 (configuration not stated),0.8,6,8,1,3.0,6,4.6,0.7
Cc1nn(Cc2ccccc2Cl)c(C)c1NC(=O)c1cc(-c2ccc(F)cc2)on1,2.2,-2,3,27,-0.1,0,-4.0,-0.2
CC1CCCN(C/C(O)=C(\C#N)c2nc3ccccc3[nH]2)C1 (configuration not stated),?,-7,-2,-10,3.1,1,.,0.7
O=S(=O)(Cc1ccccc1)Nc1cccc(F)c1,0.6,.,-4,-3,-6.6,-7,1.0,0.3
Cn1c(=O)c2c(nc(CN3CCC(C(N)=O)CC3)n2Cc2ccccc2F)n(C)c1=O,-0.1,2,-11,-6,0.6,2,4.7,1.0
CCOC(=O)C1=C(C)NC(C)=C(C(=O)OCC)C1C(=O)OC1CCOC1=O (configuration not stated),3.1,-4,-6&-2,-36,3.4,30,-23&-3.8,-0.1
CN(CC1CCCO1)S(=O)(=O)c1ccc(C(=O)Nc2ccccc2F)cc1 (configuration not stated),-1.9,3,-1,-12,1.0,-3,0.6,-0.7
COC(=O)c1ccc(NC(=O)N2CCOCC2)cc1,-0.4,5,-7,-1,-9.8,-14,6.9,0.1
Cc1ccc(-n2ncc3c2CC(C)(C)CC3NC(=O)c2ccncc2)cc1 (configuration not stated),1.6,-4,-7,2,1.9,-3,3.3,-0.2
Cc1ccc(C(=O)CSc2ccccc2C(=O)O)cc1,-0.8,1,6,-24,-4.2,-3,2.1,-2.9
Clc1cccc(CN2CCN(Cc3ccco3)CC2)c1,1.3,-15,12,28,4.7,.,3.3,0.6
COc1ccc(/C=N/NC(=O)c2cc(C3CC3)[nH]n2)cc1OC,1.3,10,-3,-8,-6.3,-2,.,0.6
COC(=O)CC1C(=O)NCCN1C(=O)Nc1ccccc1 (configuration not stated),-1.9,-1,5,-10,3.9,-8,2.2,0.3
CC(=O)COc1coc(CN2CCN(c3ccc(F)cc3)CC2)cc1=O,1.0,.,-1,-8,2.1,1,-0.1,-1.7
CCOC(=O)C(C)(C)Sc1nc2c(cnn2-c2ccc(Cl)cc2)c(=O)[nH]1,4.1,8,-6,18,0.7,3,1.6,-0.2

One compound at a time, as listed above. Values in the order: RanGTP-Imp inh, Beta cell apopt, Beta2AR agonist, T cruzi repl, LANA-H2B inh, Calb FLC, UCH37 DUB inh, Bfl-1 A1 inh
`Clc1cccc(CN2CCN(Cc3ccco3)CC2)c1` reads 1.3, -15, 12, 28, 4.7, ., 3.3, 0.6
`Cc1ccc(N(CC(=O)NC2CCCCC2C)S(=O)(=O)c2c(C)noc2C)cc1` (configuration not stated) reads 0.8, 6, 8, 1, 3.0, 6, 4.6, 0.7

Carrying on.
smiles,RanGTP-Imp inh,Beta cell apopt,Beta2AR agonist,T cruzi repl,LANA-H2B inh,Calb FLC,UCH37 DUB inh,Bfl-1 A1 inh
NC(=O)N/N=C/c1c(F)c(F)c(F)c(F)c1F,1.7,-4,1,5,-1.3,12,.,-0.3
Cc1ccc2c(CC(=O)NCC3(N4CCOCC4)CCCCC3)coc2c1C,.,-3,5,.,-0.4,.,-0.7,0.2
Oc1cccc(/C=N/NC(=S)Nc2cccnc2)c1O,0.1,87*,-2,-17,197*,10,.,-1.3
CCOc1ccc(NC(=O)C2CC(=O)N(c3ccc4c(c3)OCCO4)C2)cc1OCC (configuration not stated),-3.8,2,6,-10,-4.2,-1,3.8,1.2
O=C(/C=C/c1ccccc1)N1CCN(c2cccc(Cl)n2)CC1,-11,-1,-1,-4,-2.0,-6,3.9,-0.4
